Bioassay records (PubChem BioAssay)
Menin MLL FP FL – inhibitors of human menin-MLL interaction, wild-type MLL peptide | AID 1766 | 290,000 tested, under 10 active | Fluorescence polarization, fluorescein-MLL peptide displacement from menin | FP activity change, % at 61.4 µM; inconclusive = falling polarisation curve, or a change in total fluorescence; inactive = total fluorescence flat and polarisation flat or rising; no compound was filed as active; the % refers to the polarisation; negative = inhibition;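 also: % of control where 0% means no effect; inhibitors lower the polarisation; unlabelled MLL peptide was the positive control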
PINK1 expr mod – changes PINK1 expression | 410,000 compounds, 0.2% hits | Potency, µM (titrated, usually from 76.6 µM), for the others: at the highest dose activation (PINK1 increase), hits mostly activators | PINK1 immunofluorescence, high-content cytometry, 24 h; active = well fitted activation curve with a large enough effect; inconclusive = small, poorly fitted or top-dose-only effect; inactive = flat fitted curve, though single readings scatter; cell line not stated here;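 also: potency is read from the fitted curve at half-maximal effect; % of control where 0% means no effect; nearly all actives have a fitted effect of over 65% in size; a mitochondrial uncoupler was the plate control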
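Stable cell line treated 24 h with compounds at 5 concentrations (CCCP controls), then fixed and immunostained for PINK1 plus nuclear and cell stains; PINK1 immunofluorescence quantified by laser-scanning microplate cytometry.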
gsp ag – gsp mutant agonism. gsp mutant cells, cAMP HTRF, 30 min; control for the full effect not named in the record. Potency, µM (series often up to 76.9 µM), inactives show top-dose activation (cAMP increase), hits mostly activators. AID 624287. 340,000 compounds, 0.13% hits; active = well fitted activation curve with a large enough effect; inconclusive = small, poorly fitted or top-dose-only effect, or another doubt; inactive = no such curve, though single readings can be large or run the other way; cell line not stated here;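 also: phosphodiesterase inhibitor Ro 20-1724 added with compounds to block cAMP breakdown; potency is read from the fitted curve at half-maximal effect; nearly all actives have a fitted effect of over 60% in size; about a fifth of the inactives were tested at one dose only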
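Cells in DMEM/10% FBS with G418 were pretreated with compounds in DMSO plus […] (300 uM stock) for 30 min at 37C. cAMP was measured by HTRF (cAMP-d2 plus anti-cAMP antibody-K) after 30 min at room temperature.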
gsp antag – gsp mutant antagonism; gsp-mutant cells, cAMP HTRF, 30 min; control for the full effect not named in the record; Potency, µM (highest dose often 76.9 µM), without a hit: at the top dose activity change, negative = inhibition, actives largely listed as inhibitors; 340,000 compounds, 0.4% hits; active = falling curve of any shape with a large fitted effect; inconclusive = falling curve, mostly with a smaller effect; inactive = flat or rising curve; cell line not stated here;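 also: intracellular cAMP measured with PDE inhibitor Ro 20-1724 present during compound exposure; potency is read from the fitted curve at half-maximal effect; % is scaled to controls: 0 for no effect and ±100 for the full control effect; nearly all actives have a fitted effect of over 65% in size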
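Measurement of cellular cAMP by homogeneous time-resolved fluorescence following a 30 min compound exposure at 37C. The PDE inhibitor […] was present throughout; the assay buffer was DPBS with 0.05% BSA and 0.005% Tween 20.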
ClpP mod – qHTS Assay for Activators of ClpP. 340,000 compounds, 1.9% hits. Potency, µM (series often up to 57.5 µM), for inactives: top-dose activity change, negative = active. purified B. subtilis ClpP, FRET peptide cleavage, 20 min; active = well fitted falling curve with a large enough effect; inconclusive = small, poorly fitted or top-dose-only effect; inactive = no such curve, though single readings can be large or run the other way; also: potency is read from the fitted curve at half-maximal effect; the source files actives as falling curves though it sought activators and does not explain the sign; nearly all actives have a fitted effect of over 65% in size; many hits overshoot -100%
Target sequence (P80244 whole entry, looked up): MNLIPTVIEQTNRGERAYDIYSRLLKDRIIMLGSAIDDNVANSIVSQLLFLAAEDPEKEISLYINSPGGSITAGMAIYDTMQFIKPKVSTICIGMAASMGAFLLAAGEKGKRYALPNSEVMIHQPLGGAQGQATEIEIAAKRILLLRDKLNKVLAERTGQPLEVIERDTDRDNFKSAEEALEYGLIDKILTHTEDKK
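ClpP 10 microg/mL final, pH 8 Tris/KCl buffer with BSA, glycerol, Tween-20; compound pinned in; FRET-FV substrate; RT 20 min; Ex320/Em430; ΔFRET vs ADEP 5.8 microM, DMSO, no enzyme.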
D2 ag – agonists of human D2 dopamine receptor (beta-arrestin). P14416. DiscoveRx PathHunter D2 beta-arrestin, luminescence, 90 min; 100% = 57 uM dopamine signal. activation, % (test concentration not listed). 360,000 compounds, 0.084% hits. AID 624465; in the data active = activation above about 40%; inconclusive = about 15% to 40%; inactive = below about 15%; also: compound concentration not given in the record; the text of the record calls up to 30% inactive
Target sequence (P14416 whole entry, looked up): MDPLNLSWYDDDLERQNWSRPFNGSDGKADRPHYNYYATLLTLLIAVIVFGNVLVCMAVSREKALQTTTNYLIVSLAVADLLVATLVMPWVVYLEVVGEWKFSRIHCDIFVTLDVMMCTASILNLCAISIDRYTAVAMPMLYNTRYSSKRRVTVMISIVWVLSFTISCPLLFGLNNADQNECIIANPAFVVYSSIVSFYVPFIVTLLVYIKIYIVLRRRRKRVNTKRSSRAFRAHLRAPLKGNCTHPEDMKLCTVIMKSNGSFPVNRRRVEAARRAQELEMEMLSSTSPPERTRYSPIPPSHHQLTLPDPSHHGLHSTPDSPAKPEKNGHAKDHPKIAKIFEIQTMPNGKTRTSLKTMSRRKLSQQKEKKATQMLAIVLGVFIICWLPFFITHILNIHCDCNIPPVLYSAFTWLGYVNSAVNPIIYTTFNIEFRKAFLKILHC
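DiscoveRx PathHunter D2 beta-arrestin cells (2,100/well) attached overnight, then compound-stimulated 90 min at 37 C in HBSS/10 mM HEPES/0.1% Tween-20 buffer; beta-galactosidase complementation read by luminescence after 1 h at ambient temperature. Dopamine 57 uM final (EC100) as control.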
Sfp inh – Sfp phosphopantetheinyl transferase inhibition; Potency, µM, for inactives: max response, negative = inhibition, actives largely listed as inhibitors; Biochemical Sfp PPTase activity, qHTS; Q9F4F7; AID 1490; 310,000 compounds, 3.5% hits; active = well fitted inhibition curve with a large enough effect; inconclusive = small, poorly fitted or top-dose-only effect, or another doubt; inactive = no such curve, though single readings can be large or run the other way;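 also: the enzyme is Sfp with the accession as filed and its product quenches rhodamine fluorescence; potency is read from the fitted curve at half-maximal effect; 0% = enzyme reaction without inhibitor and -100% = no enzyme wells; top concentration of the series not given in the record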
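After 15 min at room temperature with compound, 15 nM Sfp received 5 uM rhodamine-CoA plus 12.5 uM BHQ-2-ybbR (50 mM Hepes pH 7.6, 10 mM MgCl2). Rate came from the fluorescence difference over 30 min, ex 525/em 598 nm.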
Numbers without * were called inactive; ? = inconclusive; . = not tested or not shown; & = joins results of further samples; [ ] = another dose, or the depositor's remark.

SMILES	Menin MLL FP FL	PINK1 expr mod	gsp ag	gsp antag	ClpP mod	D2 ag	Sfp inh
COc1ccc(S(=O)(=O)NN(C)c2nc(C(F)(F)F)nc3ccccc23)cc1	4.5	13.4%	-16.4%	5.4%	.	1.7	12.2%
CC(=O)OCC1=C(C(=O)O)N2C(=O)C(NC(=O)c3ccc(F)cc3)C2SC1 (stereo unspecified)	4.7	3.3%	-4.1%	-5.5%	-1.1%	-5.6	2.4%
CN1CCN(CC(=O)Nc2ccc(Oc3ccccc3)cc2)CC1	4.6	-1.4%[38.3 µM]	-35.6%[inhibitor]	12.5%	-1.2%	-3.3	0.5%
COC(=O)Cc1c(C)nc2nc(NCc3ccc(Cl)cc3)[nH]n2c1=O	0.7	4.3%	-19.0%	-3.7%	-1.9%	-5.2	26.4%
CCCn1c(N)c(C(=O)COC(=O)CCS(=O)(=O)c2ccc(C)cc2)c(=O)[nH]c1=O	.	0.3%	-9.2%	-13.1%	-1.8%	-1.8	21.3%
CCc1ccccc1NC(=O)CN1C(=O)c2ccccc2S1(=O)=O	-4.1	-0.8%	-10.4%[15.4 µM]	7.6%	.	-2.2	9.7%
O=C(COC(=O)c1ccccc1)Nc1ncc([N+](=O)[O-])s1	.	1.5%	-1.1%[15.4 µM]	-5.6%	-1.9%	-3.6	.
O=C(CN1CCN(Cc2ccccc2Cl)C1=O)NCCCN1CCOCC1	-2.2	-0.6%	18.9%	-3.5%	-3.2%	-4.6	15.0%
CN(Cc1cccs1)C(=O)COc1ccc(-c2nnco2)cc1	1.8	0.1%	7.7%	10.2%	1.3%	-2.4	13.6%
c1ccc(CNc2ncnc3nc[nH]c23)cc1	-0.5	-1.0%&0.9%&0.6%	.	-11.1%	1.6%&0.0%&-2.1%	-7.2	11.9%&-0.8%
O=C(CNS(=O)(=O)c1ccc2ccccc2c1)NCCc1ccccn1	0.7	1.6%	6.4%[15.4 µM]	3.1%	-1.3%	-1.8	20.9%
O=S(=O)(Nc1cccc(S(=O)(=O)N2CCCC2)c1)c1ccccc1F	.	-2.0%	3.7%	-13.2%	0.7%	1.3	.
Cc1c2c(nc3ccccc13)OCC2	0.0&3.8	2.7%	.	2.7%	-0.9%	3.8	-24.1%&8.4%
O=C(O)CCc1ccc(-c2cccs2)n1NC(=O)c1ccc(O)cc1	6.1	10.0%[38.3 µM]	-10.5%	0.8%	-1.6%	-1.3	?
Cc1ccc(Cc2c(-c3ccc(Cl)cc3)nc3c(Cl)cc(C(F)(F)F)cn23)cc1	.	2.9%	.	.	-8.5%	-2.3	.
O=C(Cc1cc(=O)[nH][nH]1)N/N=C/c1ccccc1Cl	6.4	0.1%	-7.9%	7.1%	0.9%	-1.1	-4.7%
CCOC(=O)[C@H]1[C@H]2COc3ccccc3[C@@H]2N2C(=O)c3ccccc3NC(=O)[C@@]12C	.	0.4%	2.4%	-1.3%	1.6%	-4.1	.
CC(C)CNC(=O)C(=O)Nc1ccc(N(C)C)cc1	4.5	0.9%	?	-5.4%	0.6%	-0.1	-6.5%
CCOc1ccc(N2CC(C(=O)NC3CCSC3=O)CC2=O)cc1 (stereo unspecified)	5.3	-0.4%	-1.4%[15.4 µM]	7.4%	.	-5.8	12.2%
N#CC(c1cccc(Cl)c1)c1ncc(C(F)(F)F)cc1Cl (stereo unspecified)	1.1	1.1%	?	-29.3%	-0.3%	-0.9	-0.6%
O=C(N/N=C(\c1ccccc1)c1cccnc1)c1ccc(O)cc1	2.6	1.3%	22.7%	-9.4%	-0.3%	-4.3	15.4%
COc1ccc(S(=O)(=O)N(C)C[C@H]2Oc3ccc(NS(=O)(=O)c4cn(C)cn4)cc3C(=O)N([C@H](C)CO)C[C@@H]2C)cc1	.	0.0%	.	-2.7%	-11.1%	-1.6	.
CCOc1ccc(S(=O)(=O)N2CCCCC2)cc1NC(=O)Cc1cccc(C(F)(F)F)c1	.	2.8%	17.7%	-5.5%	-2.2%	7.7	.
Cc1ccc(NC(=O)C(C)OC(=O)c2cc(=O)[nH]c3ccccc23)cc1S(=O)(=O)N1CCOCC1 (stereo unspecified)	.	-0.2%	5.9%	-6.7%	5.2%	0.6	.
Cn1cnnc1SCC(=O)c1ccc2c(c1)CCCC2	-0.7	-0.7%[38.3 µM]	-7.2%	0.8%	-0.4%	0.9	-23.7%
CC1(C(=O)CSc2nc3ccccc3[nH]2)CCC(=O)O1 (stereo unspecified)	-0.8	-1.5%	0.2%	2.8%	-1.1%	-0.7	-13.6%
COc1ccc2nc(C)cc(Nc3ccc(C)cc3)c2c1	0.9	1.1%	-44.9%[inhibitor]	-9.4%	.	3.2	5.1%
COc1ccc(C(=O)NC(C)c2ccncc2)cc1S(=O)(=O)N(C)Cc1ccccc1 (stereo unspecified)	.	-1.1%	-46.4%[inhibitor]	-13.2%	0.5%	3.4	.
COc1ccc(CN=Cc2c(C(=O)O)[nH]c3ccccc23)cc1	0.0	-0.3%	1.9%	5.5%	?	4.7	15.0%
O=c1cc(-c2ccccc2)[nH]n1-c1ccc([N+](=O)[O-])cc1	2.4	18.3%[38.3 µM]	-48.7%[inhibitor]	?	1.9%	-7.2	-1.6%
CCOC(=O)C1=CNS(=O)(=O)NC1CCc1ccccc1 (stereo unspecified)	.	-0.3%	.	-8.7%	-4.6%	-1.1	.
CCC1CCCCN1CCCNC(=O)c1ccc2nc(N3CCCCC3)sc2c1 (stereo unspecified)	-5.0	0.9%	12.2%	5.0%	3.4%	0.8	2.4%
CCOc1ccc(S(=O)(=O)NCCC(=O)N2CC(C)OC(C)C2)cc1 (stereo unspecified)	.	-3.7%	10.3%[15.4 µM]	3.9%	.	-4.7	.
Cn1c(SCc2nnc(-c3ccccc3Br)o2)nc2sc3c(c2c1=O)CCC3	?	3.7%[38.3 µM]	-33.1%[inhibitor]	?	-0.9%	1.9	79.4µM*
CCN1CCN(Cc2ccc(NC(=O)c3cc(NC(=O)c4cc5cccc(OC)c5o4)cc(OC)c3)cc2C(F)(F)F)CC1	3.3	-1.6%&2.6%	-0.7%&-52.0%	13.5%	?	1.9&0.0	44.7µM*
CCOC(=O)C1CCN(C(=O)COc2ccc3c(c2)OCO3)CC1	-2.9	1.7%	?	-1.9%	.	0.7	2.2%
FC(F)(F)c1cccc(-c2ccc(/C=N/Nc3nncc(-c4ccccc4)n3)o2)c1	-4.2	3.4%	?	-7.0%	1.3%	1.3	-1.3%
COc1ccc(Cl)cc1NC(=O)CCN1CCN(C)CC1	-1.0	0.5%	-35.8%	16.8%	0.4%	-5.6	7.1%
Nc1nc(-c2ccccc2)nn1C(=O)c1ccco1	-6.2	-0.7%	9.2%[15.4 µM]	5.3%	.	-6.2	6.9%
Cc1cccc(C(=O)NNC(=O)c2cccc(C)c2)c1	-0.6	-2.2%	-18.1%	-3.8%	-19.7%	-0.8	3.0%
Cc1cc(C)cc(NS(=O)(=O)Cc2ccccc2)c1	-0.3	4.3%	2.4%[15.4 µM]	-5.1%	-0.9%	-2.8	22.7%
COc1ccc(NC(=O)CCCNC(=O)Cn2cnc3sc4c(c3c2=O)CCCC4)cc1OC	0.4	2.7%	28.6%[15.4 µM]	-27.7%	?	-2.2	9.6%
CCC(=O)N1N=C(c2ccc(NS(=O)(=O)CC)cc2)CC1c1ccc(C)cc1 (stereo unspecified)	0.3	4.2%	-47.9%[inhibitor]	-12.6%	4.1%	6.0	-5.9%
O=C(CN(c1ccccc1)S(=O)(=O)c1ccccc1)NCCSc1ccccn1	-2.4	3.8%	9.3%[15.4 µM]	-7.7%	.	-19.5	11.3%
CCC(=O)N1CC23C=CC(CC2CC12CCCCC2)O3 (stereo unspecified)	-2.6	-4.3%	-1.9%	3.6%	-1.9%	-2.7	1.7%
Cc1ccc(N(CC(=O)NC2CCCC2)C(=O)CNC(=O)c2cccs2)cc1F	1.9	-0.6%	-5.7%	1.7%	.	-0.4	5.9%
CC(C)c1nc2oc3c(=O)[nH]cnc3c2c2c1CCC2	0.1	2.5%	?	-1.0%	12.6µM*	-1.2	14.8%
Nc1c(C(=O)NCCN2CCOCC2)c2nc3ccccc3nc2n1CCc1ccccc1	7.2	0.3%[38.3 µM]	19.0%	-6.5%	?	-1.7	-14.6%
CCC(C)(C)NC(=O)c1ccc(S(=O)(=O)N(C)c2ccccc2OC)cc1	1.5	-1.6%	0.0%	-7.4%	-0.9%	-1.6	-4.7%
CCOC(=O)c1cnc2ccc(C)cc2c1NCCO	0.4	-2.2%	?	4.0%	-4.7%	1.8	16.5%
NCC1CCC(C(=O)Oc2ccc(CCC(=O)O)cc2)CC1 (stereo unspecified)	7.3	-0.2%	.	-11.1%	1.9%	2.3	16.0%
Cc1ccc([N+](=O)[O-])c(OCC(=O)OCC(=O)c2ccccc2)c1	1.4	-1.1%	2.7%[15.4 µM]	2.9%	0.4%	-0.8	-3.0%
O=C(c1cc(-c2ccncc2)nc2ccc(Cl)cc12)N1CCN(Cc2ccc3c(c2)OCO3)CC1	0.3	-1.9%	25.4%[15.4 µM]	-3.6%	.	1.1	-6.5%
Cc1ccc2c(CN3CCCCC3CCO)cc(=O)oc2c1 (stereo unspecified)	-4.1	0.2%	14.8%	-10.9%	-0.9%	-5.6	10.7%
CCC(=O)c1ccc(OCC(=O)OCC(=O)NCC2CCCCC2)cc1	.	2.3%	18.8%	-0.2%	0.8%	-0.2	.
COc1ccc(CC(=O)NCC(=O)N=Nc2c(O)[nH]c3ccccc23)cc1	5.3	-1.5%	-27.9%	?	1.0%	-6.7	-2.0%
COCCNC(=O)C(c1ccc(F)cc1)N(C(=O)CCC(=O)Nc1ccccn1)C1CCCCC1 (stereo unspecified)	-0.6	-1.1%	-22.3%[15.4 µM]	3.4%	.	-0.6	14.4%
COc1ccccc1CNC(=O)CC12CC3CC(CC(Br)(C3)C1)C2	?	1.7%	-18.9%	2.3%	.	-3.0	4.1%
COCc1c(C(=O)N2CCN(c3ccc(C(F)(F)F)cn3)CC2)oc2ccccc12	0.1	4.2%	-47.3%[inhibitor]	-2.1%	-3.6%	-0.8	-0.8%
